Sa RN4220 lethal = growth inhibition of S. aureus RN4220, primary screen, OD600. 16 h. inhibition, % (test concentration not listed). 330,000 compounds, 0.33% hits. AID 1259311, 2017;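 active means z-score of -3 or lower and OD600 up to 0.18 on both plates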;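 further: plate controls were untreated cells for no effect and reference antibiotic for full effect; stock transfer was 100 nL into about 80 µL; one replicate is shown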
PrP 5UTR inh = inhibition of PrP 5' UTR reporter expression. inhibition, % (no concentration beside the values). cell-based PrP 5' UTR mRNA reporter, plate reader. 340,000 compounds, 0.35% hits;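 active means every replicate at 50% or more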;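 further: 0 = median of the neutral control wells; tested in H4 reporter cells; numbers are from one replicate; inactives centre near -14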
BJeLR lethal = MLPCN primary cell-based screen for lethality selective to Ras in HRASV12 cells. BJeLR (HRASV12) viability, CellTiter-Glo ATP luminescence, 48 h; reference of the scale not given here. inhibition, % (no concentration beside the values). 300,000 compounds, 0.17% hits;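 active means replicate mean above 50%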;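 further: 50 nL library stock added to about 25 µL; numbers are from one replicate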
Sa ugtP lethal = growth inhibition of ugtP-null S. aureus, primary screen, RN4220 ugtP deletion, OD600; 16 h; some inactives read as strong as hits; growth inhibition, % (no concentration beside the values); 330,000 compounds, 0.54% hits;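 active means z-score under -3 and OD600 up to 0.15 on both plates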;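 further: plate controls were untreated wells for no effect and antibiotic for full effect; wells of about 80 µL received 100 nL stock; the first replicate is given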
Mtb hypoxia inh = PubChem AID 1159583 | M. tuberculosis hypoxia-regulated fluorescent reporter, fluorescence | fluorescence inhibition, % (no concentration beside the values) | 300,000 compounds, 0.1% hits;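 active means 35 to 45% if threefold the growth effect, above 45% if 1.5-fold the growth effect; inactive means the rest, general growth blockers included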;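 further: wells of about 50 µL received 100 nL stock; 0% = vehicle wells and 100% = reference inhibitor wells; whole bacteria with a GFP reporter of the hypoxia response; strong numbers were not always called active; many hits fall short of the cut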
Autofluor counter = compound fluorescence in toxin protease inhibitor counterscreen; fluorescence intensity (test concentration not listed); AID 624483; compound autofluorescence counterscreen, microsphere flow cytometry; stronger effect = higher value; 360,000 compounds, 3.1% hits;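 active means at least 3 SD above the mean of all compounds, about 16000 in these data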;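 further: 100 nL of 1 mM stock went into each well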
Mtb hypoxia inh growth = recorded beside Mtb hypoxia inh, whose call it bears; growth inhibition, %; measured here: M. tuberculosis growth (absorbance);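 0% = vehicle and 100% = reference antibiotic; read after six days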
Numbers without * were called inactive; nt = no result given.

canonical_smiles	Mtb hypoxia inh growth	Sa RN4220 lethal	Sa ugtP lethal	Autofluor counter	BJeLR lethal	PrP 5UTR inh	Mtb hypoxia inh
Cc1ccsc1C(=O)Nc1cc(Cl)ccc1-n1cncn1	4	3.6	-1	6171	nt	-3	7
CCCCSc1nnc(-c2ccccc2)c2ccccc12	4	4.6	43	2514	-13	-13	9
COc1cccc(OC)c1OC(=O)C1CC(=O)N(c2ccc3c(c2)OCCO3)C1 (stereo unspecified)	16	3.0	-2	3857	nt	-10	0
Cc1ccc(N2C(=O)C(Cl)=C(NCc3ccccc3)C2=O)c(C)c1	nt	7.6	11	4019	-5	-8	nt
CSCCC(NS(=O)(=O)c1ccc(C)cc1)C(=O)NCCc1c[nH]c2ccccc12 (stereo unspecified)	7	3.2	-3	6258	0	-13	3
Cc1ccc(C23CC4CC(CC(C(=O)OCC(=O)N(C)C)(C4)C2)C3)cc1	3	5.7	-2	3319	-10	-10	1
CCN(CC(=O)NCc1ccc(Cl)cc1)C(=O)/C=C/c1ccco1	-2	32	-3	4289	0	-20	1
CN1CC(=O)N2[C@H](c3ccc4c(c3)OCO4)c3[nH]c4ccccc4c3C[C@@H]2C1=O	nt	nt	nt	4278	0	-3	nt
CCc1nnc(NS(=O)(=O)c2ccc(NC(=O)c3ccccc3O)cc2)s1	11	-8.2	7	3978	-13	-18	9
Cc1ccccc1-c1nc(CS(=O)(=O)CC(=O)NCc2ccco2)c(C)o1	16	2.6	-1	6250	4	2	11
Cc1oc(-c2ccccc2F)nc1CS(=O)CC(=O)NCc1ccccc1 (stereo unspecified)	6	6.3	1	6099	3	-16	18
CC(=NNc1nc(C)cc(C)n1)c1ccc(C)o1	nt	0.9	7	nt	nt	nt	nt
Cc1ccc(NC(=O)CCn2cccc2)cc1Cl	12	-13	2	3402	-6	-16	10
ON1C2CCCCC2N(O)C1c1c(F)c(F)c(F)c(F)c1F (stereo unspecified)	18	2.7	-4	9455	-1	-12	10
c1ccc(CSc2ncnc3c2cnn3Cc2ccccc2)cc1	26	-4.2	97*	9187	-11	-9	8

(list continues)
canonical_smiles	Mtb hypoxia inh growth	Sa RN4220 lethal	Sa ugtP lethal	Autofluor counter	BJeLR lethal	PrP 5UTR inh	Mtb hypoxia inh
Cc1ccccc1NC(=O)C1C2CCCC1C2c1ccccc1 (stereo unspecified)	nt	6.1	-1	3125	-2	-14	nt
CC(C)c1ccc(S(=O)(=O)N2CCN(C(=O)c3cccc(F)c3)CC2)cc1	nt	0.9	-4	5286	-4	-20	nt
CN1CCN(C(=S)SCC(=O)Nc2ccc(Cl)cc2C(=O)c2ccccc2)CC1	5	10	3	2035	-2	-11	6
Cc1csc(NC(=O)CSc2nnc(-c3ccccn3)n2-c2ccc(C)c(C)c2)n1	11	16	-2	4551	0	-4	2
Cc1ccc2c(c1)c1c3n2CCN(C(=O)Cn2c(-c4ccccc4)noc2=O)C3CCC1 (stereo unspecified)	10	-1.4	-23	10806	-2	-40	-5
CCC(c1nnnn1CCOC)N1CCN(c2nc3ccccc3s2)CC1 (stereo unspecified)	0	8.3	10	4043	4	-18	6
CCOC(=O)N1CCN(C(=O)c2cccc(S(=O)(=O)Nc3ccc(F)cc3)c2)CC1	0	1.1	5	4272	nt	-16	9
O=C1CSC(c2ccccc2[N+](=O)[O-])N1c1ccccc1 (stereo unspecified)	6	1.1	-1	4698	-8	-12	6
COc1cc(F)ccc1S(=O)(=O)N1CCN(c2ccccc2)CC1	3	-0.1	6	nt	-4	-19	15
S=C(Nc1ccc(Oc2ccccc2)cc1)N(CCCN1CCOCC1)Cc1ccccn1	8	8.1	6	4388	-3	6	15
CC(=O)Nc1ccccc1C(=O)C(=O)Nc1ccc(Cl)cc1	8	3.9	0	4443	22	-31	11
N/C(=N\OC(=O)Oc1ccccc1)c1ccc([N+](=O)[O-])cc1	nt	nt	nt	2635	-11	-25	nt
CCCn1c(SCC(=O)NC2CCCC2)nnc1C(C)C	2	2.9	9	5881	-7	-16	2
COc1ccc(-n2c(C)c([N+](=O)[O-])c3ccc(O)c(CN(C)C)c32)cc1	-1	-11	6	2336	6	36	3
COc1ccc(-n2cccc2/C=C2/NC(=O)N(c3cccc(Cl)c3)C2=O)cc1	-1	1.9	13	1948	-21	-39	-3

(listing goes on)
canonical_smiles	Mtb hypoxia inh growth	Sa RN4220 lethal	Sa ugtP lethal	Autofluor counter	BJeLR lethal	PrP 5UTR inh	Mtb hypoxia inh
COC(=O)c1scc(C)c1NC(=O)c1ccc(Cl)cc1	2	1.2	13	3935	4	-24	14
Cc1cc(C=C2C(=O)NC(=O)NC2=O)c(C)n1-c1cccnc1	-2	-1.0	1	3569	0	-12	4
Brc1c(-c2ccccc2)nc2n1Cc1ccccc1-2	11	14	7	3697	-1	-105	-2
Cc1ccc(C=NNC(=O)CCSc2ccccc2)cc1	-1	-8.4	-4	nt	nt	nt	-3
CCCc1ccc(C(=O)NNC(=O)c2ccc(Cl)cc2)cc1	1	-1.5	2	7985	-2	-22	-9
COc1cc(/C=N/NC(=O)/C(=C\c2ccc([N+](=O)[O-])cc2)NC(=O)c2ccccc2)cc(OC)c1O	nt	nt	nt	5986	-8	-17	nt
CCCCC(O)(CCCC)C(=O)NN(C(=O)CCl)c1ccccc1	20	11	8	2047	11	-23	18
COc1ccc(S(=O)(=O)NN=C(C)c2ccncc2)c(OC)c1	-10	1.2	5	nt	nt	nt	-2
CC1CC(C)CN(CC(=O)NCCc2ccc(S(N)(=O)=O)cc2)C1 (stereo unspecified)	-2	13	6	4226	16	-11	-3
COc1ccc(-c2noc(-c3ccco3)n2)cc1OC	nt	2.3	2	4688	9	-152	nt
Cc1ccc(C(=O)COC(=O)c2ccc(Br)o2)cc1C	9	8.1	5	8870	6	-51	6
COCc1cc(CN(C)C(=O)c2oc3c(F)cccc3c2C)[nH]n1	7	2.1	6	6409	-3	-18	3
CC(=O)Nc1ccc(NC(=O)c2ccc(Cn3cc(Cl)cn3)cc2)cc1	0	-1.2	16	2578	0	-26	0
Cc1ccc(C2=NN(C(=O)CCC(=O)O)C(c3cccs3)C2)cc1 (stereo unspecified)	17	3.1	2	4600	-12	-33	5
COc1ccc(-n2ncc3c(NCCN4CCOCC4)ncnc32)cc1	10	6.2	2	4106	-6	-21	6

Remaining list, next part
canonical_smiles	Mtb hypoxia inh growth	Sa RN4220 lethal	Sa ugtP lethal	Autofluor counter	BJeLR lethal	PrP 5UTR inh	Mtb hypoxia inh
Cc1ccccc1NC(=O)COc1ccc(Br)cc1C	1	-1.1	-2	8196	-1	-29	-2
CCC(C)NC(=O)CNC(=O)c1nn(-c2ccc(OC)cc2)c(=O)c2ccccc12 (stereo unspecified)	5	0.0	16	3875	-6	-23	12
CC(C)c1ccc(NC2CCCN(C(=O)C3=NN(C)C(=O)CC3)C2)cc1 (stereo unspecified)	2	7.0	1	5345	-1	-19	8
C(=Nc1nc2ccccc2n1CCN1CCCCC1)c1ccc2c(c1)OCO2	-2	5.2	8	nt	nt	nt	-1
Cc1ccc(NCC(=O)N/N=C\c2cccc(O)c2)cc1	nt	nt	nt	2318	-4	-29	nt
CC(=O)NC1CCC(OC(=O)Nc2ccccc2)CC1 (stereo unspecified)	13	4.0	-1	3959	nt	-25	14
C/C(CC(=O)Nc1ccc(Cl)cc1Cl)=N\NC(=O)c1ccco1	nt	nt	nt	7521	-7	-90	nt
CCc1ccccc1NS(=O)(=O)c1cc2c(cc1C)n(C)c(=O)c(=O)n2C	nt	2.8	7	6026	-1	-11	nt
Cc1cc(C(C)(C)C)oc1C(=O)OCC(=O)NC1CCCCC1	20	1.5	6	3059	-13	-9	13
Cc1ccc(NC(=O)CN2C(=O)NC(C)(C3CC3)C2=O)cc1S(=O)(=O)N1CCCCC1 (stereo unspecified)	-1	2.3	-1	3538	nt	-43	1
O=C(Nc1ccc(-c2nnn(CC(=O)N3CCN(C(=O)c4ccco4)CC3)n2)cc1)c1ccc(F)cc1	2	0.4	8	3370	4	-6	8
CCOC(=O)c1ccccc1NC(=O)c1cccs1	0	11	-3	17478*	nt	-13	2
COc1ccccc1NC(=O)CCCCC(=O)Nc1ccccc1OC	-8	-2.8	-2	3047	-2	-10	-2
COc1ccc(CN2CCNC(=O)C2CC(=O)NC2CCOCC2)cc1C (stereo unspecified)	-3	4.1	7	6332	2	-2	5
NC(=O)c1ccccc1N/C=C/C(=O)c1ccccc1	8	14	-9	8751	7	-20	10

Remaining list, next part:
canonical_smiles	Mtb hypoxia inh growth	Sa RN4220 lethal	Sa ugtP lethal	Autofluor counter	BJeLR lethal	PrP 5UTR inh	Mtb hypoxia inh
CCc1ccccc1S(=O)(=O)Cc1ccc(C(=O)NCc2cccs2)o1	0	2.0	9	2517	-1	-13	-3
CCN(CCCNC(=O)CNC(=O)c1nn(-c2ccc(OC)c(OC)c2)c(=O)c2ccccc12)c1ccccc1	0	1.7	-1	3685	-10	-6	-1
O=C(Cc1cccs1)Nc1nnc(COc2ccccc2)s1	-4	-3.0	-6	10060	-2	-28	-8
COc1ccc(CNC(=S)N/N=C/c2ccc(O)c(OC)c2)cc1	nt	nt	nt	9567	10	-30	nt
Cc1cccc(NS(=O)(=O)c2cn(C)c(=O)n(C)c2=O)c1C	10	-12	-3	5718	-5	-23	16
Cc1cc(C(=O)NCc2cc(C(=O)O)co2)co1	6	-1.8	-1	4622	0	-11	-5
CN(CCc1cn[nH]c1)C(=O)C1CCC(=O)N(CC2CCCCC2)C1 (stereo unspecified)	-2	3.4	0	6224	-5	-15	11
Cc1cccc(Nc2nc(N)c([N+](=O)[O-])c(NCc3ccco3)n2)c1	4	-5.2	2	6992	-11	-2	10
N#C/C(=N\Nc1ccccc1F)c1nc(-c2ccccc2)cs1	nt	nt	nt	4452	11	3	nt
CCOc1ccccc1-n1c(SCC(N)=O)nnc1-c1ccc(O)cc1	4	1.1	2	19710*	-10	-50	6
Cc1c(C)n2c(SCC(=O)NCc3ccc4c(c3)OCO4)nnc2[nH]c1=O	0	3.9	3	3802	2	5	-1
CCCc1cc(-c2n[nH]c(=S)n2C(C)c2ccccc2)cs1 (stereo unspecified)	5	6.6	29	10305	0	nt	7
CNC(=S)N/N=C/c1ccc(OCc2ccccc2)c(Br)c1	nt	nt	nt	2276	0	-8	nt
Cc1ccc(C)c(NC(=O)CCC(=O)NN=Cc2cccnc2)c1	6	-2.2	3	nt	nt	nt	5
FC(F)(F)COc1nc(NN=Cc2cccnc2)nc(N2CCCCC2c2ccccn2)n1 (stereo unspecified)	7	0.9	2	nt	nt	nt	0

Individual results from the list.
COc1ccc(CNC(=S)N/N=C/c2ccc(O)c(OC)c2)cc1 in Autofluor counter shows 9567
FC(F)(F)COc1nc(NN=Cc2cccnc2)nc(N2CCCCC2c2ccccn2)n1 (stereo unspecified) in Mtb hypoxia inh shows 0

(next part)
canonical_smiles	Mtb hypoxia inh growth	Sa RN4220 lethal	Sa ugtP lethal	Autofluor counter	BJeLR lethal	PrP 5UTR inh	Mtb hypoxia inh
Cc1cccc(-n2c(O)c(C=Nc3ccc(Br)cn3)c(=O)[nH]c2=O)c1	-21	0.4	4	4704	4	-20	-1
CCC(C)Nc1nc(C)nc2c1oc1ccccc12 (stereo unspecified)	1	5.6	5	5937	-7	-9	3
CN(C)S(=O)(=O)c1cccc(NC(=O)COc2ccc(C(=O)c3ccccc3)cc2)c1	2	-2.3	4	3717	0	-7	15
COCCn1c(SCc2cc(=O)n3ccsc3n2)nnc1-c1ccncc1	1	-2.7	-3	4588	0	-15	3
CC(C)(C)N1C(=O)c2ccccc2NC(=O)N1Cc1ccc(Br)cc1	nt	9.2	7	2357	-10	-36	nt
COc1cc(C=NNC(=O)c2ccncc2)c([N+](=O)[O-])cc1OC	8	3.7	7	nt	nt	nt	7
COc1ccc(-c2[nH]c(-c3ccc(Cl)cc3)nc2SCC(=O)Nc2nccs2)cc1	4	6.5	-28	5892	12	-16	-3
Cc1cccc(-n2ncc(Cl)c(Cl)c2=O)c1	nt	9.5	10	3990	90*	8	nt
Cc1cccc(Cc2nnc(CCC(=O)NCc3ccncc3C)o2)c1	-6	2.0	2	4999	2	-16	6
CC(=O)N(c1cccc(Br)c1)C1C=CS(=O)(=O)C1 (stereo unspecified)	7	-1.4	1	12516	-4	-28	1
CSc1nncc(=O)[nH]1	8	-1.5	1	21213*	0	-31	-5
COc1ccccc1NC(=O)Cn1nnc(C(=O)NCCc2ccccc2)c1N	6	3.5	5	2060	-1	-4	-3

Screening data: PubChem, several laboratories
